VACV mCherry inh = vaccinia inhibition (mCherry reporter); Vaccinia virus mCherry reporter infection, fluorescence; about a quarter of the inactives have no number; Potency, µM (series often up to 36.5 µM), for the others: at the highest dose activity change, negative = inhibition, actives largely listed as inhibitors; 310,000 compounds, 0.63% hits; AID 720579; active = well fitted inhibition curve with a large enough effect; inconclusive = small, poorly fitted or top-dose-only effect; inactive = no such curve, though single readings can be large or run the other way; tested in A549 cells; further: nearly all actives have a fitted effect of over 35% in size; inactives centre near -10
VACV Venus inh = vaccinia inhibition (Venus reporter). Vaccinia virus Venus reporter expression, fluorescence. Potency, µM (titrated, usually from 36.5 µM), for the others: top-dose activity change, negative = inhibition, usual class: inhibitors. 330,000 compounds, 0.46% hits; active means well fitted inhibition curve with a large enough effect; inconclusive means small, poorly fitted or top-dose-only effect; inactive means no such curve, though single readings can be large or run the other way; tested in A549 cells; further: nearly all actives have a fitted effect of over 30% in size; inactives centre near -10
Active calls of the source: *; i = inactive; ? = inconclusive; · = no result given; [ ] = another dose, or the depositor's remark. On the % scale 0 is the no-effect control and ±100 the full control effect; potency means the concentration at half of the fitted maximal effect.

SMILES	VACV mCherry inh	VACV Venus inh
COc1ccc(CCN(Cc2cccs2)S(=O)(=O)c2ccc(C(=O)O)cc2)cc1OC	-14.3%	-3.4%
CCCn1c(SCC(=O)Nc2nnc(CC)s2)nnc1-c1ccco1	-18.0%	-11.5%
CC1CCN(S(=O)(=O)c2cc(C(=O)NCCc3ccccc3)n(C)c2)CC1	-19.5%	-24.3%
CN(CCNC(=O)c1cc2c(=O)n(C)c3ccccc3c2n1C)Cc1ccccc1	-17.0%	-4.7%
Brc1ccc(Cn2c(-c3ccc(Br)o3)nc3ccccc32)o1	-8.6%	-9.2%
CCC12CN3CC(CC)(CN(C1)C3c1c(C)[nH]c(=O)[nH]c1=O)C2=O (stereo not drawn)	-4.8%	-5.6%
COc1ccccc1/C=C/C(=O)Nc1nc2n(n1)C(c1ccc(F)cc1)C=C(c1ccccc1)N2 (stereo not drawn)	-7.0%	-6.9%
Cc1cc(C)c(NC(=O)COC(=O)/C=C/c2cccc(C(F)(F)F)c2)c(C)c1	-10.8%	-7.7%
Cc1onc(-c2c(Cl)cccc2Cl)c1C(O)c1ccccc1 (stereo not drawn)	-12.8%	-9.5%
O=C(NNC(=O)c1cc(-c2ccccc2)nc2ccccc12)Nc1cccc(Cl)c1	?	-30.0%
Cc1nn(-c2ccccc2)c(C)c1C(=O)OCC(=O)N(C)c1c(N)n(Cc2ccccc2)c(=O)[nH]c1=O	i	-11.5%
Cc1oc2cc([N+](=O)[O-])c(O)c([N+](=O)[O-])c2c1C(=O)c1ccc(Br)cc1	i	-13.1%
COc1cc(NC(=O)c2ccc(Cl)cc2)c(OC)cc1NC(=O)CN1CCOCC1	·	-13.7%
CCc1[nH]c(=O)c(C#N)c2c1CCCC2	-9.6%	-7.6%
COc1ccccc1C(=O)NC1(C(F)(F)F)C(=O)Nc2c1c(=O)[nH]c(=O)n2CCc1ccccc1 (stereo not drawn)	-16.0%	-1.5%
C=CC[n+]1c(-c2ccc(OC)cc2)csc1NNC(=O)Nc1ccccc1	-24.7%	-22.8%
COc1ccc(OC)c(-c2csc(NC(=O)CSc3ccc(Br)cc3)n2)c1	-12.5%	-21.2%
CC(=O)N1c2ccc(S(=O)(=O)NCCC(=O)NCCc3ccc(C)cc3)cc2CC1C (stereo not drawn)	i[7.34 µM]	-11.5%[7.34 µM]
CCOC(=O)N1CCN(C(=O)/C(=C/c2cccs2)NC(=O)c2ccc(OC)c(OC)c2)CC1	4.2%	2.8%
CCSc1nc2c(c(=O)n(C)c(=O)n2C)n1Cc1ccc(Cl)cc1	-8.7%	-3.7%
COc1ccc(CN(Cc2ccccn2)S(=O)(=O)c2ccc(-n3cnnn3)c(OC)c2)cc1	-19.9%	-11.7%
CCN1C(=O)C(=C2C=C(C)N(Cc3ccco3)C(C)=C2)C(=O)N(CC)C1=S	-3.5%	-17.8%
CCN(CC)C(=O)C1=C(C)N(CCCOC)C(=O)C(CC(=O)NCc2cccc3ccccc23)C1 (stereo not drawn)	i	-7.2%
COc1ccc(C(=O)NCC(c2ccco2)N2CCc3ccccc32)c(OC)c1 (stereo not drawn)	-31.9%	?
CNc1nc(C)nc(-c2ccccc2O)n1	i	-13.9%
CCOC(=O)C1=C(Cn2cnc3ccccc32)NC(=O)NC1c1cc(C)ccc1C (stereo not drawn)	?	-29.9%
Cc1cc(NC(=O)c2ccc(COc3ccccc3Cl)o2)no1	i	-5.9%
C(=C\c1cccs1)/c1ccccn1	-2.9%	?
COc1ccc2c(c1)CC(C)C/C2=N\NC(=O)c1ccco1 (stereo not drawn)	-10.1%	-5.5%
NCCCC[C@@H]1NC(=O)c2cc([N+](=O)[O-])cc(I)c2SC[C@@H](C(=O)NCC(N)=O)NC(=O)CNC1=O	i	-10.8%
Nc1ccc2nc(CN3CCOCC3)[nH]c2c1	·	-9.3%
CN1/C(=C/C=N/n2cnnc2)C(C)(C)c2ccccc21	i	-12.3%
CCNC(=S)Nc1ccc(OCc2nc3ccccc3s2)cc1	-8.5%	-14.7%
CSc1nnc(NC(=O)c2cc(=O)c3cc(C)cc(C)c3o2)s1	-2.8%	-4.3%
CC(=O)OC(C(=O)N1CCN(c2ccc(F)cc2)CC1)c1ccccc1 (stereo not drawn)	i	-7.4%
N#Cc1ccc(C23CC4(C2)[C@H](CN(Cc2cccnc2)[C@@H]4c2ccccc2)C3c2ccccc2)cc1 (stereo partly drawn)	-17.0%	?
CN(C)S(=O)(=O)c1ccc(N2CCCC2)c(C(=O)NC2CCCCC2)c1	-3.1%	-1.0%
CC(C)Oc1ccc(Cn2c(-c3ccco3)n[nH]c2=S)cc1	28.2µM*	?
COc1ccc(OCc2nnc(SCC(=O)NNC(=O)c3ccc(C)cc3)n2C)cc1	-9.5%	-12.8%
CC1Cc2ccccc2N1C(=O)CSc1nnc2c(n1)[nH]c1ccc(F)cc12 (stereo not drawn)	-11.5%	-4.3%
Cn1c(=O)oc2cc(S(=O)(=O)N3CCCC(C(=O)N4CCN(c5ccc(Cl)cc5)CC4)C3)ccc21 (stereo not drawn)	?	?
COc1ccccc1C1C2=C(CC(C)(C)CC2=O)Nc2nnnn21 (stereo not drawn)	-5.3%	-1.8%
CCCN(C)C1CN(Cc2cn(Cc3ccc(Cl)cc3)nn2)S(=O)(=O)C1 (stereo not drawn)	23.5%	5.8%
CC(C)(C)c1cc2nc(NCCOc3ccccc3)ccn2n1	8.3%	-2.6%
Cc1cc(O)c(-c2cc(C(=O)NCCc3ccc(S(N)(=O)=O)cc3)[nH]n2)cc1C	-5.9%	1.9%
Cc1c(C(=O)OC2CCCC2)[nH]c2c1C(=O)CC(c1ccc(C(C)(C)C)cc1)C2 (stereo not drawn)	-1.2%	-10.4%
COc1cc(C(=O)NCC(=O)N/N=C\C(C)=C/c2ccccc2)cc(OC)c1OC	-22.4%	-8.3%
Cn1nccc1C(=O)NC(=S)Nc1cc(Cl)cc(Cl)c1	i	?
CCN(CC)c1nc(N)nc(N(c2ccccc2)c2ccccc2)n1	?	-22.0%
Cc1ccc(C2CC(=O)Oc3cc(C)c(Br)c(C)c32)cc1 (stereo not drawn)	-8.3%	-13.3%
Cc1cc(C)nc(Sc2ccc3nnc(C(F)(F)C(F)(F)C(F)(F)F)n3n2)n1	-3.8%	-8.7%
O=C(C1CCCCC1)N1CCN(c2nc(-c3ccc(F)cc3)cs2)CC1	-16.1%	-2.6%
CN(C)/C=C1/C(=O)NC(=O)N(CCNc2ncc(C(F)(F)F)cc2Cl)C1=O	12.0%	7.6%
COc1ccc(NC(=O)C2Cc3c(-c4ccco4)ccnc3O2)cc1OC (stereo not drawn)	?	-28.0%
CC1CCc2c(nc3ncnn3c2NCCc2ccccc2F)C1 (stereo not drawn)	i	-26.3%
COc1cc(=O)n2c(c1C(=O)N(C)Cc1nonc1C)CCN(C(=O)c1cc(C)cc(C)c1)CC2	-8.0%	-16.0%
O=C(Nc1ccc2c(c1)CCC2)c1cnn2c1NC(c1ccco1)CC2C(F)(F)F (stereo not drawn)	-20.6%	?
CCC(C(=O)Nc1ccc(C(=O)Nc2ccccc2C(=O)O)cc1)c1ccccc1 (stereo not drawn)	i	-26.0%
CC1CCC(NC(=O)c2cc3c(s2)CS(=O)(=O)C3)CC1 (stereo not drawn)	-29.2%	-20.1%
O=C(Cc1ccc(NC(=O)N2CCSc3ncccc32)cc1)NCc1ccccc1Cl	-12.0%	-2.7%

Full records from above.
CC(C)(C)c1cc2nc(NCCOc3ccccc3)ccn2n1 is listed with VACV mCherry inh: 8.3%; VACV Venus inh: -2.6%
CCC12CN3CC(CC)(CN(C1)C3c1c(C)[nH]c(=O)[nH]c1=O)C2=O (stereo not drawn) is listed with VACV mCherry inh: -4.8%; VACV Venus inh: -5.6%
Brc1ccc(Cn2c(-c3ccc(Br)o3)nc3ccccc32)o1 is listed with VACV mCherry inh: -8.6%; VACV Venus inh: -9.2%

Other compounds follow:
SMILES	VACV mCherry inh	VACV Venus inh
CC(C)(C)c1ccc(C(=O)N/C(=C\c2ccco2)C(=O)O)cc1	i	-2.9%
Cc1ccc2n1Cc1cnnn1-c1ccccc1-2	i	-24.0%
N#Cc1ccc(CSc2nnc(-c3cccc(S(=O)(=O)N4CCCCC4)c3)o2)cc1	·	?
CC1CC(=Cc2ccc(N)cc2)C(=O)O1 (stereo not drawn)	-1.2%	-4.6%
COc1ccc(CCNC(=O)CCCn2c(=O)c3ccccc3n(Cc3ccccc3C)c2=O)cc1OC	-17.4%	-10.3%
CCCCNC(=O)C(C#N)c1nc2ccccc2nc1N1CCN(c2ccccc2F)CC1 (stereo not drawn)	i	-8.3%
CCCn1c(NC(=S)Nc2ccccc2)nc2ccccc21	?	?
Cc1cccc(-n2c(-c3ccccc3)cn3c4c(=O)[nH]c(=O)n(C)c4nc23)c1	-20.7%	-5.4%
CCOC(=O)CNC(c1ccccc1)c1cc(Br)ccc1NC(=O)c1cccc(Cl)c1 (stereo not drawn)	-1.9%	9.9%
CC(C)c1ccc(NC(=O)CCNS(=O)(=O)c2ccc3c(c2)oc(=O)n3C)cc1	-6.2%	-2.1%
CCN1C(=O)C(CC(=O)Nc2ccc(OC)cc2)N(CCCN2CCN(c3ccc(OC)cc3)CC2)C1=S (stereo not drawn)	10µM*	?
c1ccc2cnccc2c1	-10.0%	-5.0%
CCCN(Cc1cc2cc(C)ccc2[nH]c1=O)C(=O)c1ccccn1	i	-14.6%
Cn1nc(OCCOc2ccccc2)ccc1=O	·	-29.1%
CCC(=O)N1CCc2cc(Br)cc(S(=O)(=O)CCC(=O)NCCc3cccc(C)c3)c21	-4.6%	-6.0%
O=C(/C=C/c1ccncc1)c1cc(Cl)ccc1O	-11.6%	15.6%
O=C(N[C@H](Cc1ccc(Cl)cc1)C(=O)O)OCC1c2ccccc2-c2ccccc21	-3.4%	-11.9%
CCOC(=O)c1[nH]cnc1C(=O)Nc1ccccc1OC	-8.1%	-17.4%
CC1CCN(CC(=O)NC2CCCCC2)CC1	-9.9%	-6.2%
NC(=O)[C@@H]1CC2(CC(c3cccc(NC(=O)CC(c4ccccc4)c4ccccc4)c3)=NO2)CN1C(=O)[C@@H]1CCC(=O)N1 (stereo partly drawn)	i	-19.0%
Cc1ccc2nc(-c3ccc(NC(=O)COc4ccccc4)cc3)sc2c1	-4.3%	-1.7%
COc1ccc(CN2CCN(C(=O)c3ccc(-c4ccccc4)cc3)CC2)c(OC)c1OC	-7.6%	-6.9%
CCOc1ccc(S(=O)(=O)N2CCN(Cc3ccc4c(c3)OCO4)CC2)cc1C	-9.4%	-9.9%
Cc1cccc2cc3cccc(C)c3nc12	-12.6%	-8.8%
O=C(CCCC(=O)N1CCN(c2ccccc2F)CC1)c1ccccc1	-1.6%	1.9%
Cc1cc(C)n(-c2ccc(Cl)c(C(=O)O)n2)n1	·	-7.5%
N#Cc1c(N2CCCCC2)nc(N2CCCCC2)c2c1CCN(Cc1ccccc1)C2	i	-9.0%
Cc1ccc(S(=O)(=O)NCC(=O)N(CC(=O)NCc2ccco2)Cc2ccccc2)cc1	?	-14.0%
CCN(CC)C(=S)Nc1ccc(OC(F)F)cc1	-0.2%	-6.1%
CN(C)S(=O)(=O)c1ccc(Cl)c(NC(=O)COC(=O)CCC2CCCCC2)c1	i	-1.7%

2 records drawn at random from those above:
SMILES	VACV mCherry inh	VACV Venus inh
Cc1ccc(S(=O)(=O)NCC(=O)N(CC(=O)NCc2ccco2)Cc2ccccc2)cc1	?	-14.0%
NC(=O)[C@@H]1CC2(CC(c3cccc(NC(=O)CC(c4ccccc4)c4ccccc4)c3)=NO2)CN1C(=O)[C@@H]1CCC(=O)N1 (stereo partly drawn)	i	-19.0%

(more compounds)
SMILES	VACV mCherry inh	VACV Venus inh
CCS(=O)(=O)N1CCCc2cc(C(=O)Nc3cc([N+](=O)[O-])ccc3C)ccc21	i	-13.4%
CC(=O)Nc1ccc(S(=O)(=O)Nc2nc3ccccc3nc2Nc2cccc(S(N)(=O)=O)c2)cc1	2.1%	-9.1%
CC1CC(C)(C)NC(=S)N1CC(=O)NCc1ccccc1Cl (stereo not drawn)	-6.0%	-4.2%
NC1=NN=C(c2ccc3c(c2)OCCO3)CS1	-14.9%	-18.2%
O=C(NCc1ccccc1F)C(=O)NCC(c1ccc2c(c1)OCO2)N1CCOCC1 (stereo not drawn)	-9.8%	-7.5%
COc1ccc(CNC(=O)C2CCCN(c3nccc(C)n3)C2)cc1 (stereo not drawn)	-10.8%	-17.2%
COc1ccc(CN(C)CC(O)COC(c2ccc(OC)cc2)c2ccc(OC)cc2)cc1 (stereo not drawn)	-0.8%	-21.0%
COc1ccc(S(=O)(=O)N(C)C[C@H]2Oc3ccc(NC(=O)c4ccncc4)cc3C(=O)N([C@H](C)CO)C[C@@H]2C)cc1	i	-17.1%
CCOc1cc(OCC)cc(C(=O)NC(=S)Nc2cccc(C(F)(F)F)c2)c1	-12.4%	23.1%
COCCCNC(=O)C[C@@H]1C[C@@]2(C(=O)OC)CCCCC=C2N(Cc2ccc3c(c2)OCO3)C1=O	-7.0%	-6.5%
Cc1ccnc(NC(=O)CCC(=O)N(CC(=O)NCc2ccc(F)cc2)c2cccc(F)c2)c1	i	0.0%
Cc1ccc(Cl)cc1-c1cc(C(=O)NCc2ccc(C(F)(F)F)cc2)[nH]n1	32.7%[activator]	-4.6%
CN(CC(=O)Nc1ccc(Cl)cc1)C(=O)CNC(=O)c1ccc2ccccc2c1	-8.6%	-24.3%
O=C(Nc1ccccc1)c1nc(S(=O)(=O)Cc2ccccc2F)ncc1Cl	-12.1%	-16.0%
Cc1ccc(C)c(S(=O)(=O)NCC(=O)OCC(=O)Nc2sccc2C(N)=O)c1	-19.0%	-17.4%
CN(CCO)c1ccc2c(c1)OC[C@H](Cc1ccccc1)NS2(=O)=O	27.2%	-5.3%
